RE007 growth inh = qHTS Assay for Inhibitors of the HIV-1 protein Vpr; S. pombe RE007 Vpr strain, BacTiter-Glo ATP luminescence, 24 h; control for the full effect not named in the record; Potency, µM (top dose mostly 92.2 µM), without a hit: at the top dose activity change, negative = less growth; 0.21% of 360,000 active; active = well fitted falling curve with a large enough effect; inconclusive = small, poorly fitted or top-dose-only effect; inactive = no such curve, though single readings can be large or run the other way;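 also: nearly all actives have a fitted effect of over 50% in size; the assay follows cell death caused by Vpr and the record does not say whether a fall means rescue or toxicity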
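Fission yeast strain RE007, carrying one chromosomally integrated HIV-1 vpr copy, was seeded at OD 0.01 in PMG+AL medium with 23 nL pinned compound. After 24 h at 30 °C and 99% humidity, viability was read by BacTiter-Glo luminescence.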
StopGo reporter = High Throughput Screening for Foot and Mouth Disease Virus Antivirals | human cells with a luciferase reporter of 2A StopGo recoding; control for the full effect not named in the record | Potency, µM (titrated, usually from 57.9 µM), inactives show top-dose signal change, negative = less light | 1.2% of 410,000 active | AID 1159524, 2015; active = well fitted falling curve with a large enough effect; inconclusive = small, poorly fitted or top-dose-only effect; inactive = no such curve, though single readings can be large or run the other way; tested in HEK293T cells; also: nearly all actives have a fitted effect of over 45% in size; luciferase light after 4 h
* = called active by the depositor; ? = inconclusive; [ ] = another dose, or the depositor's remark. % is scaled to controls: 0 for no effect and ±100 for the full control effect; potency is read from the fitted curve at half-maximal effect.

SMILES	RE007 growth inh	StopGo reporter
CSc1ccccc1-c1cnc(NC(C)=O)cn1	-20.2%	18.7%
O=C1C=C(N2CCOCC2)c2cccc3cccc1c23	10.0%	-13.9%
O=C1NCN(c2ccccc2)C12CCN(C(c1ccccc1OC(F)(F)F)c1nnnn1C1CCCC1)CC2 (stereo not drawn)	24.3%	-1.4%
CC1(c2ccccc2)NC(=O)N(CC(=O)Nc2ccc(S(=O)(=O)NC3=NCCCCC3)cc2)C1=O (stereo not drawn)	0.6%	-8.9%
O=C1CC(=O)Nc2ccccc2N1	-10.7%	0.0%
CC(C)(C)n1nnnc1C(c1cccs1)N1CCC2(CC1)C(=O)NCN2c1ccccc1 (stereo not drawn)	-12.4%	-21.5%
O=C(c1cc(COc2ccc(-n3cncn3)cc2)on1)N1CCCC1	0.1%	-11.1%
O=NN(CCCl)C(=O)NCC1=C[N+](=O)CC=C1	-29.2%	-16.8%
COc1ccccc1N1CCN(C(=O)[C@H](C)NS(=O)(=O)c2ccc3c(c2)OCCCO3)CC1	-4.5%	-15.7%
COc1cccc(-c2cnc3c(NC=O)cc(-c4ccc(OC)cc4OC)cn23)c1	13.0%	?
Clc1ccc(-c2nc3c4ccccc4ccn3c2Cc2ccsc2)cc1	-21.3%	-12.8%
COc1cc(C(=O)NCC(c2cccs2)N2CCOCC2)ccc1OCc1ccc(Cl)cc1 (stereo not drawn)	-6.6%	?
CC(=O)N1CCc2cc(NC(=O)C3(C)CCN3Cc3ccc(C(C)C)cc3)ccc21 (stereo not drawn)	-23.4%	?
O=[N+]([O-])c1ccc(NCCCc2ccccc2)cc1	-16.0%	6.2%
COC(=O)c1c(C)cc(O)c(C)c1O	2.0%	-12.7%
CN(Cc1ccc(Cl)cc1)C(CCc1ccccc1)C(=O)NC1CCCCC1 (stereo not drawn)	-4.2%	-3.2%
CC(=O)Nc1ccc(S(=O)(=O)NCCC(=O)OCC(=O)NC(C)c2ccc(Cl)cc2)cc1 (stereo not drawn)	-0.3%	-10.0%
Cc1ccc2nc(-c3ccc(CN4CCC(n5c(=O)[nH]c6ccccc65)CC4)cc3)c(-c3ccccc3)nc2c1	-16.3%	-3.6%
COc1ccc(NC(=O)N(C)C[C@@H]2Oc3ncc(Br)cc3C(=O)N([C@@H](C)CO)C[C@@H]2C)cc1	11.6%	-0.6%
Cc1ccccc1S(=O)(=O)NCC[C@@H]1CC[C@@H](NC(=O)C2CCCC2)[C@@H](CO)O1	-9.4%	7.6%
COCC(=O)N[C@H]1CC[C@@H](CC(=O)OC)O[C@@H]1CO	9.8%	-13.4%
O=C(NCCOc1ccccc1)c1cccc(S(=O)(=O)N2CCN(Cc3ccccc3)CC2)c1	-2.6%	10.1%
COc1cccc(C2c3c(oc4ccccc4c3=O)C(=O)N2Cc2ccco2)c1 (stereo not drawn)	-9.7%	17.8%
CN(C)CCNC(=O)c1cccc(-c2cc(NC=O)c3ncc(-c4cccc(C(F)(F)F)c4)n3c2)c1	-6.9%	-2.1%
COC(=O)[C@@]12C[C@@H](CC(=O)N3CCN(C(=O)C4CC4)CC3)C(=O)N(Cc3cccc4ccccc34)C1=CCC(C)(C)C2	6.6%	-21.8%
Cc1cc(C)c(CN2CCN(C(=O)CC[C@H]3O[C@@H](n4cnc5c(NC(=O)c6ccccc6)ncnc54)[C@H](O)[C@@H]3O)CC2)c(C)c1	-3.1%	-13.2%
CC(C)NC(=O)C1(C)CN(S(C)(=O)=O)CC(=O)N1C1CCCCCC1 (stereo not drawn)	-3.2%	-10.4%
C[C@@H]1Cn2cnc(C(=O)NCc3ccc(CNC(=O)OC(C)(C)C)cc3)c2C(=O)N1	-3.9%	-15.8%
O=C(NC(c1ccc(-c2ccccc2)cc1)c1cnccn1)C1CCN(CCN2C(=O)c3ccccc3C2=O)CC1 (stereo not drawn)	2.6%	-18.1%
C[C@H](CO)N1C[C@H](C)[C@@H](CN(C)C(=O)c2ccc(N3CCN(C)CC3)cc2)OCc2cnnn2CCCC1=O	5.4%	-2.8%
C[C@@H]1COc2cc(N(C)CCO)ccc2S(=O)(=O)N1	-12.4%	-15.5%
COCCNC(=O)C1CCCN(C(=O)c2ccc(F)c(C)c2)CC1 (stereo not drawn)	1.6%	-0.6%
C[C@H]1CN([C@@H](C)CO)C(=O)CCCn2nncc2CO[C@H]1CN(C)C(=O)Nc1ccc(N2CCCCC2)cc1	-20.0%	-4.4%
Cc1ccc(-c2cnc(C(O)c3ccc(Cl)c(Cl)c3)[nH]2)cc1 (stereo not drawn)	-15.3%	-0.1%
CCc1ccccc1Oc1nc(NCCOC)nc2cc(-c3ccccc3)sc12	14.1%	-11.9%
CCc1ccc(/C=C2\SC(=S)N(CCCC(=O)N3CCN(C)CC3)C2=O)cc1	-21.0%	14.6%
CCN(CC)C(=O)Cn1cc(C(=O)C(=O)Nc2ccc3c(c2)OCO3)c2ccccc21	8.6%	2.7%
COc1ccc(CN(C)C[C@@H]2OCc3cnnn3CCCC(=O)N([C@H](C)CO)C[C@H]2C)cc1	1.4%	-4.4%
C[C@H](NC(=O)[C@@H]1CCCN1C(=O)[C@@H]1CCCN1C(=O)c1cccs1)c1ccccc1	3.3%	-14.6%
COc1cc(-c2cc(NC=O)c3ncc(-c4cccc(C(=O)N(C)C)c4)n3c2)cc(OC)c1OC	10.3%	?
COc1cc(O)c2c(=O)c3c(O)c(O)ccc3oc2c1OC	-11.7%	15.0%
CCN(CC)S(=O)(=O)c1ccc(N2CCOCC2)c(NC(=O)c2cc3ccccc3o2)c1	11.0%	0.0%
CCOCc1nc(N)nc(N)c1-c1cccc(Cl)c1	16.4%	-8.3%
C[C@H]1CN([C@@H](C)CO)C(=O)CCCn2nncc2CO[C@@H]1CN(C)Cc1ccccc1	-0.4%	-14.6%
O=c1[nH]c2ccccc2n1C1CCN(Cc2ccc(-c3[nH]c4cc5ncnc5cc4nc3-c3ccccc3)cc2)CC1	-26.2%	-10.5%
CCNC(=O)C1(C)CCN(Cc2ccc(C(F)(F)F)cc2)C1 (stereo not drawn)	-8.8%	-19.3%
COc1ccc(CCCNC(=O)C2Cc3c(-c4cccc(C(C)=O)c4)ccnc3O2)cc1 (stereo not drawn)	-9.5%[18.4 µM]	-23.2%
CC(C)NC(=O)N(C)C[C@@H]1OCCCC[C@@H](C)Oc2ccc(NC(=O)Nc3ccc(F)cc3)cc2C(=O)N([C@H](C)CO)C[C@@H]1C	3.3%	-7.2%
C[C@H]1CN([C@@H](C)CO)S(=O)(=O)c2ccc(Br)cc2O[C@H]1CN(C)S(=O)(=O)c1ccccc1	4.2%	-24.2%
CC(=O)Nc1ccc(NC(=O)c2ccccc2Br)cc1	-4.8%	-8.1%
COC(=O)[C@@H](Cc1ccccc1)NC(=O)/C=C/[C@H]1O[C@@H](n2cnc3c(NC(=O)c4ccccc4)ncnc32)[C@H](O)[C@@H]1O	9.4%	-10.2%
CC1=C(C(=O)N(C(C)C)C(C)C)CC(CC(=O)NCCN2CCOCC2)C(=O)N1CCCN1CCCC1=O (stereo not drawn)	10.7%	-5.2%
CCO[C@@H]1OC(C(=O)Nc2ccccc2)=C[C@H](C)[C@H]1CCCO	-2.0%	25.5%
OC(c1ccccc1)c1ncc(-c2ccccc2F)[nH]1 (stereo not drawn)	-16.6%	90.9%[activator]
CC(C)Nc1nc(-c2ccccc2F)c2sc(-c3ccccc3)cc2n1	0.5%	-22.8%
CCN(CC)S(=O)(=O)c1ccc(N2CCCCC2)c(NC(=O)C2CSC3(C)CCC(=O)N23)c1 (stereo not drawn)	-7.2%	-21.4%
CC(C)(C)c1cc(NC(=O)COC(=O)c2ccccc2)n(-c2ccccc2)n1	8.7%	2.0%
CN(C)CCNC(=O)c1cccc(-c2cccc3nccn23)c1	-2.3%	?
CCOC(=O)[C@]12CCCC=C1N(Cc1ccc3c(c1)OCO3)C(=O)[C@H](CC(=O)NCC1CCCCC1)C2	-12.2%	32.0%[activator]
Cc1cccc(C2CC(c3ccccc3)=NN2c2ccc(S(N)(=O)=O)cc2)c1 (stereo not drawn)	1.9%	-12.9%

(list continues)
SMILES	RE007 growth inh	StopGo reporter
CC[C@H]1CC2CN3CCc4c([nH]c5cc(OC)ccc45)[C@](C(=O)OC)(C2)[C@H]13	-0.4%	-20.8%
Cc1noc(C)c1S(=O)(=O)Nc1ccc2c(c1)C(=O)N([C@H](C)CO)C[C@H](C)[C@@H](CN(C)C(=O)CCCN(C)C)OCCCC[C@@H](C)O2	5.8%	-3.0%
CC(=O)OCC(=O)C1(O)CCC2C3CCC4=CC(=O)CCC4(C)C3C(O)CC21C (stereo not drawn)	10.0%	-22.7%
CC(C)CN(C(=O)COC(=O)c1cccs1)c1c(N)n(Cc2ccccc2)c(=O)[nH]c1=O	-2.4%	42.5%[activator]
OC(c1ccccc1)(c1nc(-c2cccc(C(F)(F)F)c2)cs1)C(F)(F)F (stereo not drawn)	28.2µM*	-17.8%
CCCN(CC(=O)Nc1ccccc1C)C(=O)/C=C/c1ccc(OC)c(OC)c1	9.1%	-13.3%
C[C@@H]1CN([C@@H](C)CO)C(=O)CCCn2nncc2CO[C@H]1CN(C)S(=O)(=O)c1ccc(Oc2ccccc2)cc1	18.9%	-12.8%
O=C(CN1CCN(c2ccccc2)CC1)Nc1ccccc1C(=O)NCCc1ccccc1	-1.8%	9.8%
Cc1ccc(C)c(-n2nnc3ccccc3c2=O)c1	-11.4%	3.1%
Cc1ccc(OCCNC(=O)[C@H]2O[C@@H](n3ccc(=O)[nH]c3=O)[C@H](O)[C@@H]2O)cc1C	-2.0%	-7.9%
COc1cccc(CNC(=O)[C@@H]2CCCN2C(=O)[C@H]2CCCCN2C(=O)c2cccs2)c1	-7.4%	0.0%
CC(C)C[C@H]1COc2cccc(N3CCN(Cc4ccccc4F)CC3)c2S(=O)(=O)N1	-22.3%	-6.1%
Cn1c(=O)c2cc(NC(=O)Nc3cccnc3)ccc2n1Cc1cccc(C(F)(F)F)c1	-7.2%	-17.4%
O=C(CC[C@H]1O[C@@H](n2cnc3c(NC(=O)c4ccccc4)ncnc32)[C@H](O)[C@@H]1O)NCc1cccc2ccccc12	-13.3%	-15.6%
CCN(CC)c1ncnc2c1ncn2[C@H]1CN(Cc2cccs2)C[C@@H](CO)O1	-1.3%	-8.2%
CCOC(=O)[C@]12Cc3cc(C)ccc3[C@H]1N(Cc1ccccc1)C(=O)c1ccccc12	10.7%	?

The list is partial, so the mix of outcomes need not match the whole.
